Vif A3G: HIV-1 Vif–A3G interaction blockers – biochemical, TR-FRET, GST-Vif 1-94, biotin-A3G peptide, dose response retest, primary screen (AID 1117319); TR-FRET GST-Vif / biotin-A3G peptide binding; higher % means a stronger effect; test concentration not given here; strong numbers were not always called active; one-dose inhibition, %; IC50 in µM for titrated hits; actives 0.57% (n = 260,000);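 active = above the screen mean plus three standard deviations and confirmed in dose response; inconclusive = results disagree or hit not tested in dose response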;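 note: Vif residues 1-94 fused to GST binding biotinylated APOBEC3G peptide 110-148; 0% = full assay without inhibitor and 100% = GST in place of GST-Vif; retest series ran down from 100 µM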
A1 inh: inhibitors of the anti-apoptotic protein A1, read as caspase activation | actives 0.066% (n = 330,000) | MEF A1-2A-BIM cells, Caspase-Glo 3/7 luminescence, 3 h; percent of clofoctol response, vehicle zero | caspase activation, % (concentration not given with the values);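 active = over half of replicate activation scores above 10%, or exactly half above 10 with the replicate mean above 10; inconclusive = replicate mean below 10 yet half the replicates above 10; inactive = over half of replicates below 10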;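 note: wells of about 30 µL received 50 nL stock; many hits fall short of the cut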
Calb FLC: affects C. albicans growth with fluconazole. actives 0.57% (n = 300,000). growth inhibition, % (concentration not given with the values). C. albicans CaCi-2 (fluconazole-resistant clinical isolate) + fluconazole, Alamar Blue growth, 48 h. AID 1979;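 active = most replicates above 75%; inconclusive = exactly half above 75%; inactive = most below 75%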;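 note: all wells also contain fluconazole at 8 µg/ml as a sub-toxic cotreatment; 0% = median of DMSO wells and 100% = median of geldanamycin control wells; wells of about 8 µL received 7.5 nL stock; the first replicate is given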
LANA-H2A inh: blocks KSHV LANA binding to histone H2A/H2B. cell-free LANA-H2A/H2B peptide, fluorescence polarization. inhibition, % (concentration not given with the values). actives 0.6% (n = 320,000); in the data active = inhibition mostly above about 10%, no sharp cut-off; inactive = mostly below about 6.7%;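 note: stock transfer was 7.5 nL into about 10 µL; 0% = median of vehicle wells and 100% = median of positive control wells; one replicate is shown; the record names a cut of 25% in any replicate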
Target sequence (Q9QR71 whole entry, looked up): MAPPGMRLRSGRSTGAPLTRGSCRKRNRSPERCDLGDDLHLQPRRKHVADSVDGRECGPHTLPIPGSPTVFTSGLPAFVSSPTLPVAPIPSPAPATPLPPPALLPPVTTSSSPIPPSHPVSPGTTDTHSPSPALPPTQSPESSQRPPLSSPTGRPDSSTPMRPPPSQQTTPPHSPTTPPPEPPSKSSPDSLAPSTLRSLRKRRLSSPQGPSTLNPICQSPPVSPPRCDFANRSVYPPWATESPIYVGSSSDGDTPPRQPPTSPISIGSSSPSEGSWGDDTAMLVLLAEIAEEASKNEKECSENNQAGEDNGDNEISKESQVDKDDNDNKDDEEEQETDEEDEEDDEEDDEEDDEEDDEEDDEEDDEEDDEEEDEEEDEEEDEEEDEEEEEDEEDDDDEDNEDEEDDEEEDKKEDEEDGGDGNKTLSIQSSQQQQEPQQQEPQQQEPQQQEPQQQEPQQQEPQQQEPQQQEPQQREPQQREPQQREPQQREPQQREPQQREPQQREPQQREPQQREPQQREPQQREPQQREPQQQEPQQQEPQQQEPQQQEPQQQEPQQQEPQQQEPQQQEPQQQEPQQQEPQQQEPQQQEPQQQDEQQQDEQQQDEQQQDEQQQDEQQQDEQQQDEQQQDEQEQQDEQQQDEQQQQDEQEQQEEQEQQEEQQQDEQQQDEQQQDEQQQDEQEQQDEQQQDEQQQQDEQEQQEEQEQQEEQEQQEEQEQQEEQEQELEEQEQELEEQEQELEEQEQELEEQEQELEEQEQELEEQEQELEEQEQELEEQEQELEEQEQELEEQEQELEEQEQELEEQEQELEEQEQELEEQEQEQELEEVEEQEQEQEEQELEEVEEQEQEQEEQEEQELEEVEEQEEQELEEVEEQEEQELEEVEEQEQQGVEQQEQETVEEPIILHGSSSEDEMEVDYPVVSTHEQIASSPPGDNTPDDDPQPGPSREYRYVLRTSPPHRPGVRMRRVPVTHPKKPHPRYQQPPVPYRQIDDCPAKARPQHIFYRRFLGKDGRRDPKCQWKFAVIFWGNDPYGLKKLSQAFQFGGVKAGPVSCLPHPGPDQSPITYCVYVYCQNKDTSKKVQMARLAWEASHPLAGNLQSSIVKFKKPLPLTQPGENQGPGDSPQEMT
Beta apoptosis: blocks beta cell apoptosis | INS-1E cytokine-induced death, ATP luminescence, 48 h; percent of positive-control rescue, neutral wells zero | protection from apoptosis, % (concentration not given with the values) | actives 0.8% (n = 300,000);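 active = all replicates at 75% or more, or half of them and the mean; inconclusive = half reach 75% but not the mean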;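 note: 0% = cytokine-treated negative control wells and 100% = positive control rescue; higher means more ATP so stronger rescue from cytokine killing; wells of about 40 µL received 100 nL stock; the first replicate is given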
AF4-AF9 inh: blocks AF4 peptide binding to human AF9 | P42568 | inhibition, % at 10 µM | actives 0.47% (n = 350,000) | AlphaScreen, biotin-AF4 peptide binding to FLAG-AF9;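 active = every replicate reaching a set inhibition limit, whatever the replicate mean, cut at about 25% in these data; inconclusive = mean inhibition reaches that limit but some replicates miss it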;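 note: 0% = plate neutral control median and 100% = total signal loss; the record names both 10 and 1 µM as test concentration; the first replicate is given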
RanGTP-Impb inh: inhibitors of RanGTP-importin-beta interaction, primary screen, biochemical, FRET, CFP-Ran, YFP-importin-beta, homogeneous. cell-free CFP-Ran/YFP-importin-beta FRET ratio. inhibition, % (concentration not given with the values). actives 1.1% (n = 300,000). AID 2216;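 active = most replicates above 15%; inconclusive = exactly half above 15%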;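 note: 0% = DMSO wells and 100% = Ran loaded with GDP instead of GTP; wells of about 40 µL received 100 nL stock; the first replicate is given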
T cruzi inh: blocks replication of Trypanosoma cruzi | inhibition, % (no concentration beside the values) | T. cruzi beta-gal in NIH3T3, luminescence, 90 h | AID 1885 | actives 1.4% (n = 300,000);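 active = mean inhibition across valid replicates above about 55%, limit read from the data; inconclusive = mean below that limit but half or more replicates reach it; inactive = mean below it, under half of replicates reach it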;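 note: signal also drops with host cell toxicity which is not excluded here; 0% = plate median of DMSO wells and 100% = zero luminescence signal; higher percent means less beta-gal luminescence so fewer parasites; stock transfer was 50 nL into about 50 µL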
* hit, by the source's call; ? = inconclusive; . = no result given. Rows were taken by chance. About 4.3% of those tested had a hit in this group.

SMILES	Vif A3G	A1 inh	Calb FLC	LANA-H2A inh	Beta apoptosis	AF4-AF9 inh	RanGTP-Impb inh	T cruzi inh
Clc1ccc(-c2c[n+](Cc3cccc(Cl)c3)c3n2CCC3)cc1	.	0.4	-3	3.3	22	-0.4	-2.9	60*
O=c1c2ccccc2nc(-c2ccc(Cl)cc2)n1C1CCS(=O)(=O)C1 (stereo not given)	-9%	-0.8	0	-3.6	5	.	-4.4	10
Cn1c(C(C#N)/C(=N\S(=O)(=O)c2cccs2)c2ccccc2)nc2ccccc21 (stereo not given)	-6%	-0.5	-4	0.2	-3	.	?	-1
COc1ccc(/C=C/C(=O)c2ccc(C(=O)/C=C/c3ccc(OC)c(OC)c3)cc2)cc1OC	1%	.	5	.	.	-1.6	-46	?
Cc1c(NC(=O)COC(=O)c2ccc(Cl)nc2)c(=O)n(-c2ccccc2)n1C	8%	-0.4	.	13	3	-2.6	.	.
Cc1cccc(C(=O)N2CCC(c3nc4ccccc4s3)CC2)c1	3%	1.2	23	0.1	-4	-2.3	-2.5	6
CCN(CC)S(=O)(=O)C1CCS(=O)(=O)C1 (stereo not given)	15%	1.7	-9	5.3	.	.	0.2	2
COc1cccc(NC(=O)CN(C)CC(=O)Nc2ccc(C)cc2Cl)c1	8%	0.1	14	-6.1	-2	-0.4	4.1	-4
O=Cc1ccc(-c2cccc([N+](=O)[O-])c2)o1	6%	-0.1	9	4.1	-9	.	2.9	-11
COc1ccc(S(=O)(=O)N2CCC(C(=O)Nc3nnc(CCN4CCCCC4)s3)CC2)cc1	0%	-0.2	-5	0.0	.	.	.	-14
CCN1CCCC1CNCC(O)COc1ccc(C(C)(C)C)cc1C (stereo not given)	.	-0.2	-4	-2.7	-6	0.6	14	7
O=C(NNC(=O)C1CCCO1)c1ccc([N+](=O)[O-])cc1 (stereo not given)	-1%	0.3	1	6.4	1	?	1.5	13

Reformatted with values under each structure: entries from further up
Below each SMILES – Vif A3G	A1 inh	Calb FLC	LANA-H2A inh	Beta apoptosis	AF4-AF9 inh	RanGTP-Impb inh	T cruzi inh
> Clc1ccc(-c2c[n+](Cc3cccc(Cl)c3)c3n2CCC3)cc1
 : .	0.4	-3	3.3	22	-0.4	-2.9	60*
> O=c1c2ccccc2nc(-c2ccc(Cl)cc2)n1C1CCS(=O)(=O)C1 (stereo not given)
 : -9%	-0.8	0	-3.6	5	.	-4.4	10
> Cn1c(C(C#N)/C(=N\S(=O)(=O)c2cccs2)c2ccccc2)nc2ccccc21 (stereo not given)
 : -6%	-0.5	-4	0.2	-3	.	?	-1
> COc1ccc(/C=C/C(=O)c2ccc(C(=O)/C=C/c3ccc(OC)c(OC)c3)cc2)cc1OC
 : 1%	.	5	.	.	-1.6	-46	?
> Cc1c(NC(=O)COC(=O)c2ccc(Cl)nc2)c(=O)n(-c2ccccc2)n1C
 : 8%	-0.4	.	13	3	-2.6	.	.
> Cc1cccc(C(=O)N2CCC(c3nc4ccccc4s3)CC2)c1
 : 3%	1.2	23	0.1	-4	-2.3	-2.5	6
> CCN(CC)S(=O)(=O)C1CCS(=O)(=O)C1 (stereo not given)
 : 15%	1.7	-9	5.3	.	.	0.2	2
> COc1cccc(NC(=O)CN(C)CC(=O)Nc2ccc(C)cc2Cl)c1
 : 8%	0.1	14	-6.1	-2	-0.4	4.1	-4
> O=Cc1ccc(-c2cccc([N+](=O)[O-])c2)o1
 : 6%	-0.1	9	4.1	-9	.	2.9	-11
> COc1ccc(S(=O)(=O)N2CCC(C(=O)Nc3nnc(CCN4CCCCC4)s3)CC2)cc1
 : 0%	-0.2	-5	0.0	.	.	.	-14
> CCN1CCCC1CNCC(O)COc1ccc(C(C)(C)C)cc1C (stereo not given)
 : .	-0.2	-4	-2.7	-6	0.6	14	7
> O=C(NNC(=O)C1CCCO1)c1ccc([N+](=O)[O-])cc1 (stereo not given)
 : -1%	0.3	1	6.4	1	?	1.5	13

(listing goes on)
SMILES	Vif A3G	A1 inh	Calb FLC	LANA-H2A inh	Beta apoptosis	AF4-AF9 inh	RanGTP-Impb inh	T cruzi inh
CCN(CCO)Cc1csc2ccc(Br)cc12	-9%	-1.0	1	-5.6	0	.	-1.0	19
CCCCC(=NCCc1c(C)[nH]c2ccc(OC)cc12)C1=C(O)CC(c2ccccc2)CC1=O (stereo not given)	-10%	0.6	26	-8.0	29	4.9	3.0	50
COc1ccc(C(=O)NC(=S)N2CCN(c3ccc([N+](=O)[O-])cc3)CC2)cc1	-9%	2.4	-32	1.4	1	-2.5	2.1	-13
CCN(CC)CCNc1oc(-c2ccccc2)nc1S(=O)(=O)c1ccccc1	.	0.0	.	0.6	-2	4.2	.	.
CCOC(=O)c1sc(Nc2nc(OC)cc(OC)n2)nc1C	.	-0.2	25	1.1	15	-1.9	-0.4	-19
COc1ccc(N2CCN(C3CCCN(C(=O)CN4CCCC4=O)C3)CC2)cc1 (stereo not given)	.	0.9	5	-2.3	-1	0.8	-0.7	-12
Cc1ccc(S(=O)(=O)NC(=O)Nc2nnc(C)s2)cc1	-1%	-0.3	-2	2.7	-3	.	1.8	-7
O=C(O)c1[nH]c2ccccc2c1C(c1cccc(O)c1)c1c(C(=O)O)[nH]c2ccccc12	0%	0.5	2	-12	2	0.6	0.0	-10
CCCCCCNCC1OCc2ccccc2CO1	-18%	-0.2	3	4.7	-4	-2.6	0.9	2
COC(=O)CN1C(=S)N(C)C(=O)/C1=C/c1cccs1	?	0.8	-3	-2.3	3	13	1.8	0
COc1cc(NC(=O)CSCc2ccc(Cl)cc2)c(C(=O)O)cc1OC	.	0.3	-5	-3.4	-4	-20	?	-3
COc1ccc(CCNC(=S)NC(=O)c2ccccc2)cc1C	-3%	-0.6	-3	-0.3	-5	-3.5	0.9	-5
O=C(NC(Cc1ccccc1)C(=O)N1CCN(c2ccccn2)CC1)c1ccco1 (stereo not given)	10%	1.9	33	2.0	4	.	1.8	7
Cc1cccc(-n2cnc(C(=O)NNC(=S)Nc3ccccc3)c2)n1	.	0.1	47	-4.7	21	10	3.5	-3
Nc1nc(COc2ccc3ccccc3c2)cs1	3%	-0.8	-36	-7.9	.	.	-2.3	-9
Cc1cc(C)n2c(SCC(=O)Nc3cc(C)on3)nnc2n1	9%	1.4	12	6.3	.	.	-0.4	-1
Cc1ccc2nc(NCc3ccc(F)cc3)c3nncn3c2c1	?	0.9	-3	-1.8	7	-2.5	1.3	-3
CC(C)NS(=O)(=O)c1ccc(OCC(=O)Nc2ccc3c(c2)OCO3)c(Cl)c1	13%	0.2	-4	-2.7	.	.	1.8	11
CCN(CC)S(=O)(=O)c1ccc(C)c(NC(=S)NC2CCCCC2)c1	17%	-1.8	5	-3.3	-1	1.7	2.0	-3
CCN1CCN(C(=O)C2CCN(S(=O)(=O)c3ccc(Br)cc3)CC2)CC1	.	0.5	6	2.6	3	-0.8	3.0	0
Cc1ccc(NC(=O)COC(=O)c2cc(Cl)cc(Cl)c2)c(Br)c1	7%	0.4	6	-2.2	1	.	6.8	6
Cc1ccccc1N(C(=O)c1snc(C(N)=O)c1N)C(C(=O)NCC1CCCO1)c1ccc(F)cc1 (stereo not given)	.	-0.5	?	4.4	-15	1.0	5.2	-1
O=C(Nc1ccc(F)cc1)NC1CCCc2ccccc21 (stereo not given)	-10%	-0.2	-6	5.0	6	0.0	0.3	16
CC1CN(c2ccc(NC(=O)c3ccco3)cc2C(=O)O)CC(C)O1 (stereo not given)	.	-0.4	-2	0.9	-3	1.6	6.6	.
O=C(NCc1ccccc1)c1ncn(Cc2ccccc2)c1C(=O)NCc1ccccc1	.	-0.1	.	-1.8	0	-0.3	.	.
CC1(C)C2CCC1(CS(=O)(=O)Nc1ccc(S(=O)(=O)N3CCCC3)cc1)C(=O)C2 (stereo not given)	.	-1.0	10	1.1	1	.	-0.4	-3
Cc1ccc2c(c1)CCCN2C(=O)c1ccoc1C	5%	0.0	-1	-3.2	-6	.	5.4	-10
CCc1cc(=O)oc2c(C)c(OCC(=O)NCCCn3ccnc3)ccc12	.	0.2	6	5.1	1	3.8	?	-6
CCOc1ccc(CCNC(=O)Cn2cccc2C(=O)c2ccccc2C)cc1OCC	.	1.0	7	5.3	0	-4.4	3.8	39
O=C(Nc1ccc(Cl)cc1)c1ccc(S(=O)(=O)N2CCOCC2)cc1	.	0.3	1	2.8	0	-3.4	-3.7	2
Cc1ccc(CNC(=O)C2CCC(CNc3c(N4CCOCC4)c(=O)c3=O)CC2)cc1 (stereo not given)	-4%	0.4	-3	-3.4	-6	-1.3	-0.1	3
COc1ccccc1CNC(=O)CCS(=O)(=O)Cc1ccc(C)cc1	.	1.0	-3	-1.1	1	0.9	1.4	5
Cn1c(O)c(N=NC(=O)CNC(=O)c2ccco2)c2ccccc21	1%	0.3	4	0.4	0	-3.1	-2.9	-1
O=C(NCCSCc1ccccc1)c1ccc(F)cc1	.	0.1	0	2.1	-18	.	6.3	16
Cc1cc(OCCCC(=O)NNC(=O)c2ccncc2)ccc1Cl	.	0.0	-1	-3.1	2	-1.1	0.4	-11
COc1ccc(CN(C(=O)c2oc3cc(C)ccc3c2C)C2CCS(=O)(=O)C2)cc1OC (stereo not given)	.	.	12	1.0	1	8.6	1.1	4
Brc1cccc(C2CC(c3ccccc3)n3nnnc3N2)c1 (stereo not given)	-1%	-1.2	56	-2.2	.	.	1.1	1
Cc1ccccc1NC(=O)CSc1ccc(-c2ccccn2)nn1	.	-0.3	-2	-0.4	-4	-0.1	1.6	5
Nc1nc(Nc2ccccc2F)nc(NCc2ccccc2)c1[N+](=O)[O-]	-1%	-2.4	2	2.1	2	-0.1	8.5	7
CC(CNS(=O)(=O)c1ccccc1)Sc1nncn1C (stereo not given)	2%	-0.4	1	-0.7	-1	11	2.9	-8
O=C(CSCc1ccc(Cl)cc1)Nc1ccc(Br)cc1C(=O)O	-8%	0.6	-4	0.8	-8	-2.6	0.3	-17
CCOC(=O)N1CCN(C2=C(NS(=O)(=O)c3ccc(C)cc3)C(=O)c3ccccc3C2=O)CC1	.	0.5	-7	2.8	-5	0.6	-0.5	-10
CCOc1ccccc1NC(=O)c1ccc2c(c1)C(=O)N(CC(C)C)C2=O	.	0.4	4	-3.2	3	-2.9	-1.1	10
CCC(=O)Nc1cccc(C(=O)OC)c1	-6%	0.8	7	3.2	-3	-0.9	2.0	1
CCCCC(=O)Nc1ccc(NC(=O)c2cccnc2)cn1	5%	0.6	7	-5.3	58	.	-2.4	10

Bioassay records from PubChem.
